Bioassay records deposited in PubChem BioAssay by several laboratories.
GALR2 ag: activates the human galanin receptor 2 | hit rate 0.48% among 140,000 | AID 803 | GALR2-expressing cells, agonist activation read-out | activation, %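 (tested at 5 µM)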 | O43603;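 active = above mean plus 3 SD of all compounds, about 5% in these data, not always enough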;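 note: 0% = vehicle buffer wells and 100% = reference agonist at full effect; tested in CHO reporter cells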
Target sequence (O43603 whole entry, looked up): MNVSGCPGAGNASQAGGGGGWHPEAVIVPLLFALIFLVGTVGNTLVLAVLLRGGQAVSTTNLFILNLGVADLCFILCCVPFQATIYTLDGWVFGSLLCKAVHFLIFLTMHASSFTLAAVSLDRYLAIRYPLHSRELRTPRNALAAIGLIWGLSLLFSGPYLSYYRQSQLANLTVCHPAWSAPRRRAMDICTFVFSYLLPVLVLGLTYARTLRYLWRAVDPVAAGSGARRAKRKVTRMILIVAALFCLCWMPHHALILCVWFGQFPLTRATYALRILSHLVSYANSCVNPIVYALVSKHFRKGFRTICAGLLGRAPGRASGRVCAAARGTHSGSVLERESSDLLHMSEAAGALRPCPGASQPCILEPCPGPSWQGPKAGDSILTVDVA
PKD1 kinase inh: inhibitors of human PKD1 kinase | inhibition, %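 (about 10 µM by stock and volumes)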 | AID 797 | PKD1 kinase fluorescence polarization assay | hit rate 0.056% among 200,000 | Q15139;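 active = inhibition of 50% or more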;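 note: controls were vehicle for no effect and a reference inhibitor for full effect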
HSV augment: increases HSV replication in cells; HSV replication augmentation in cells, fold increase; AID 1956; hit rate 0.005% among 220,000; maximum fold increase;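 active = peak rise of 1.5-fold or more in the series; inconclusive = self-fluorescent or not available for retest; tested in PC3 cells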;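 note: first round at 10 µM; read as green reporter fluorescence; hits show the peak of a series up to 25 µM; 1 = signal of infected wells without compound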
INS promoter inh: TRM-6 insulin promoter activity inhibition; TRM-6 cells (human fetal islet line), insulin promoter-eGFP reporter, imaging; reporter expression induced with tamoxifen; inhibition, % at 2 µM; hit rate 0.9% among 130,000; AID 1273;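 active = inhibition above the mean plus 3 SD, with well images judged a real hit on visual review, cut at about 60% in these data, passing the limit was not always enough; inconclusive = inhibition over the cutoff but images rejected on review; inactive = inhibition not above the cutoff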
RGS16-Gao HTS: modulates binding between human RGS16 and Galphao; binding response (% of control), % at 10 µM; O15492+P09471; bead-based flow cytometry RGS16-Galphao binding, fluorescence; actives lie on both sides; hit rate 0.38% among 220,000;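 active = below 25% or above 175%, edge rows of some plates excepted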;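 note: Galphao activated by GDP with aluminum fluoride before binding; 100% = wells without compound and 0% = beads without RGS; some results beyond the cut were filed as inactive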
Target sequence (O15492 whole entry, looked up): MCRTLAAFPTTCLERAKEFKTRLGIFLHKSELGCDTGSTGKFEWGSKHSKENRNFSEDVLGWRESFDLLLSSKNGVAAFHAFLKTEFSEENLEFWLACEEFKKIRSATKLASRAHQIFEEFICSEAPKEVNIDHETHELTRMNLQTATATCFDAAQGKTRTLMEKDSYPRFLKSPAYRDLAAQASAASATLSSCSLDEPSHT
Target sequence (P09471 whole entry, looked up): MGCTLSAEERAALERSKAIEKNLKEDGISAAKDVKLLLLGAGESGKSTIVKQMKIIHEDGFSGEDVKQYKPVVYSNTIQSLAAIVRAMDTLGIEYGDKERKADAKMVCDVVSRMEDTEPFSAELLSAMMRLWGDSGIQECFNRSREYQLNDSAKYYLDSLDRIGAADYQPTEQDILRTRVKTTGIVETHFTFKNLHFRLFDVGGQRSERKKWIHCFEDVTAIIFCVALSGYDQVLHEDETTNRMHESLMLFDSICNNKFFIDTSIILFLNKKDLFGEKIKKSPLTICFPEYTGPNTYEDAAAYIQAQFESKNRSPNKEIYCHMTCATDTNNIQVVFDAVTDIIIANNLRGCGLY
INS promoter inh cell count: recorded beside INS promoter inh, whose call it bears; normalized cell count, %; measured here: cell count, toxicity; reference of the scale not given here;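 cells exposed to compound for 48 h; stained nuclei by imaging scaled within each plate; lower means fewer cells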
HSV augment primary fold: recorded beside HSV augment, whose call it bears; fold increase; compound at 10 µM; measured here: primary screen fold increase 10 uM; tested in PC3 cells;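 GFP signal in the first replicate; 1 = infected wells without compound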
The depositor's hits bear a star; i = inactive; u = inconclusive; x = no result given; & = joins results of further samples.

SMILES | GALR2 ag | PKD1 kinase inh | HSV augment | HSV augment primary fold | INS promoter inh | INS promoter inh cell count | RGS16-Gao HTS
Cc1nn(Cc2ccccc2)c(C)c1C(=O)OCC(=O)Nc1cc(S(C)(=O)=O)ccc1Cl | x | 2 | i | 1 | x | x | 96
CN1c2ccc([N+](=O)[O-])cc2CC2(C(=O)NC(=O)NC2=O)C1c1ccccc1 (stereo not given) | -0.5 | -11 | i | 1.1 | -71 | 79 | 104
O=C(c1ccccc1F)c1cn(CC(=O)N2CCCC2)c2ccccc12 | -2.8 | -8 | i | 0.94 | -21 | 98 | 100
CC(N)C(=O)c1ccco1 (stereo not given) | -0.7 | -5 | i | 0.82 | x | x | 103
CCc1ccccc1NC(=O)CNC1CCCCC1 | x | 2 | i | 0.9 | x | x | 107
CN(C)P(=S)(Nc1ccccc1)C(Cl)(Cl)Cl (stereo not given) | x | 1 | i | 1.1 | x | x | 108
O=C1NC(=S)N(c2ccc(Br)cc2)C(=O)/C1=C/N1CCN(C(=O)c2ccco2)CC1 | x | 5 | i | 1.1 | x | x | 100
O=C(c1ccccc1)c1ccccc1N=Cc1c(O)[nH]c(=O)[nH]c1=O | x | -4 | i | 0.89 | 43 | 172 | 90
Nc1c(C(=O)NCCc2ccccc2)c2nc3ccccc3nc2n1CCN1CCOCC1 | 25* | -4 | i | 1.1 | x | x | 101
CCOC(=O)CNC(=O)CSP(=S)(OCC)OCC | -2.0 | -14 | i | 0.81 | x | x | 107
CCCCc1ccc2[nH]cc(CCN)c2c1 | -0.1 | -6 | i | 0.78 | 10 | 130 | 87
C[N+]12CCC(CC1)C(C#N)(N1CCOCC1)C2 (stereo not given) | -0.5 | 0 | i | 0.96 | x | x | 103
Cn1c(O)c(/C=N/N2CCOCC2)c(=O)n(C)c1=S | x | x | i | 1.2 | x | x | 92
Cc1ccc2c(c1)=C/C(=C\c1c(O)[nH]c(=O)[nH]c1=O)C(=O)N=2 | 0.7 | 1 | i | 0.95 | x | x | 102
Cc1ccc(-n2c(O)c(C=Nc3ccc(Br)cn3)c(=O)[nH]c2=O)cc1 | x | -4 | i | 1 | x | x | 104
COc1cccc(C2(O)CCN(Cc3ccncc3)CC2)c1 | x | -4 | i | 1 | x | x | 103
O=C(Cn1cc(C(=O)c2ccccc2F)c2ccccc21)NC1CC1 | x | -1 | i | 0.89 | -127 | 84 | 102
COc1ccc(N2C(=O)NC(=O)/C(=C/c3ccc4c(c3)Cc3ccccc3-4)C2=O)cc1 | x | -3 | i | 1 | x | x | 97
O=C(C1CCN(S(=O)(=O)c2ccccc2)CC1)N1CCC2(CC1)OCCO2 | -0.2 | -5 | i | 1.1 | -29 | 163 | 91
COc1ccc(CN2C(=O)NC(=O)/C(=C\c3ccco3)C2=O)cc1 | x | -3 | i | 1.1 | -11 | 159 | 89
O=C(Nc1ccc(Cl)cc1)OC1CN2CCC1CC2 (stereo not given) | x | x | i | 0.8 | x | x | 97
O=c1[nH]c(=O)n(C2CCCCCC2)c(O)c1C=NCc1cccnc1 | x | x | i | 1 | x | x | 104
O=c1[nH]c(=S)n(Cc2ccc(F)cc2)c(O)c1C=NCCCn1ccnc1 | x | x | i | 0.91 | x | x | 106
CC(C)C(=O)Nc1ccc(N2CCN(C)CC2)c(F)c1 | x | -7 | i | 1 | x | x | 98
Cc1cccc(NC2=NCCCS2)c1 | x | x | i | 1 | x | x | 89
SMILES | GALR2 ag | PKD1 kinase inh | HSV augment | HSV augment primary fold | INS promoter inh | INS promoter inh cell count | RGS16-Gao HTS
CCCCn1c(O)c(/C=N/N2CCOCC2)c(=O)[nH]c1=S | x | x | i | 1 | x | x | 99
Cn1c(O)c(C(=N)COc2ccccc2)c(=O)n(C)c1=O | -2.1 | 3 | i | 1 | 53 | 89 | 105
N#Cc1c(Cl)nc(Cl)c2c1CCN(Cc1ccccc1)C2 | 1.8 | -7 | i | 0.94 | 11 | 143 | 96
Cc1ccccc1NC1(C#N)CCCCC1 | x | 6 | i | 0.96 | 9 | 49 | 112
c1ccc(-c2nnc(C3CC(c4cccnc4)=NO3)o2)cc1 (stereo not given) | x | x | i | 0.92 | x | x | 104
CN(C)c1ccc(C(=O)N/N=C/C23CC[C@@H](O)CC2(O)CC[C@@H]2[C@@H]3CCC3(C)C(C4=CC(=O)OC4)CCC23O)cc1 (stereo not given in full) | x | x | i | 0.65 | x | x | 99
CC(C)(C)C(O)C(Oc1ccc(Cl)cc1)n1cncn1 (stereo not given) | -0.2 | -4 | i | 1.1 | 43 | 61 | 99
CCc1n[nH]c(CCN)n1 | x | x | i | 1.1 | x | x | 100
O=P(O)(Oc1ccccc1)OC(c1ccccc1)C(F)(F)F (stereo not given) | x | -10 | i | 0.84 | x | x | 98
CC1NCCC2(O)CCCCC12 (stereo not given) | x | 6 | i | 1 | -187 | 103 | 156
CSc1ncc(/C=C2/C(=O)NC(=O)N(C)C2=O)cn1 | -4.6 | 0 | x | x | x | x | 95
CCCC(C)C(=O)NC1CCSC1=O (stereo not given) | -0.1 | -12 | i | 0.97 | x | x | 105
CC(=NCCCO)c1c(O)n(Cc2ccccc2)c(=O)[nH]c1=O | 0.2 | -1 | i | 0.96 | 15 | 73 | 99
C[N+]1(CC2COC(c3ccco3)O2)CCCCC1 (stereo not given) | x | -3 | i | 1 | 29 | 128 | 104
CC(C)C(=O)Nc1ccc(S(=O)(=O)N2CC3CC(C2)c2cccc(=O)n2C3)cc1 (stereo not given) | x | 7 | i | 0.93 | -78 | 91 | 102
CCOP(=S)(OCC)Oc1cc(C)oc(=O)c1 | x | x | i | 0.81 | x | x | 103
S=P(Nn1cnnc1)(c1ccc(Br)cc1)c1ccc(Br)cc1 | x | 1 | i | 0.88 | 36 | 154 | 104
COc1ccccc1-n1c(-c2ccoc2)nc2ccccc2c1=O | -2.7 | -7 | i | 0.84 | x | x | 75
CCOCCCNC(=O)CN1C2CCC1CC(O)(c1ccc(OC)cc1)C2 (stereo not given) | -2.5 | -6 | i | 1.1 | x | x | 117
O=CC(Cl)P(=O)(N1CCCCC1)N1CCCCC1 (stereo not given) | 0.0 | -3 | i | 0.85 | 10 | 143 | 99
C=CCn1c(O)c(/C=N/NC(=O)c2ccncc2)c(=O)[nH]c1=O | x | x | i | 0.95 | x | x | 97
O=c1[nH]c(=O)n(CCC2=CCCCC2)c(O)c1C=NCCCn1ccnc1 | -2.1 | -11 | i | 1 | 24 | 52 | 101
CC1=NCCc2c1[nH]c1ccccc21 | x | 3 | i | 1 | x | x | 101
O=c1[nH]c(O)c(C=NC2CCCCC2)c(=O)[nH]1 | x | x | i | 0.97 | x | x | 104
CCC(=NCCc1ccccc1)c1c(O)[nH]c(=O)[nH]c1=O | x | x | i | 0.97 | x | x | 103

In a second layout: three of the compounds above.
Nc1c(C(=O)NCCc2ccccc2)c2nc3ccccc3nc2n1CCN1CCOCC1
  GALR2 ag: 25*	PKD1 kinase inh: -4	HSV augment: i	HSV augment primary fold: 1.1	INS promoter inh: x	INS promoter inh cell count: x	RGS16-Gao HTS: 101

CC(=NCCCO)c1c(O)n(Cc2ccccc2)c(=O)[nH]c1=O
  GALR2 ag: 0.2	PKD1 kinase inh: -1	HSV augment: i	HSV augment primary fold: 0.96	INS promoter inh: 15	INS promoter inh cell count: 73	RGS16-Gao HTS: 99

COc1ccc(N2C(=O)NC(=O)/C(=C/c3ccc4c(c3)Cc3ccccc3-4)C2=O)cc1
  GALR2 ag: x	PKD1 kinase inh: -3	HSV augment: i	HSV augment primary fold: 1	INS promoter inh: x	INS promoter inh cell count: x	RGS16-Gao HTS: 97

Later entries
SMILES | GALR2 ag | PKD1 kinase inh | HSV augment | HSV augment primary fold | INS promoter inh | INS promoter inh cell count | RGS16-Gao HTS
O=C(O)C1C2c3ccccc3C(c3ccccc32)C1C(=O)Nc1ccccc1 (stereo not given) | x | -11 | i | 1 | 29 | 110 | 64
CN[C@H](C)[C@H](O)c1ccccc1 | x | x | i | 0.88 | x | x | 100
CC(NCc1ccccc1Cl)C(O)c1ccccc1 (stereo not given) | -2.2 | -3 | i | 0.8 | x | x | 110
CCCCN1C(=O)/C(=C\c2ccco2)C(=O)N(CCc2ccccc2)C1=O | -2.7 | -7 | i | 1.3 | -38 | 180 | 102
CCN(CC)C(=O)c1ccc(NC(=O)c2cccc(F)c2)cc1 | -1.9 | 2 | i | 0.8 | x | x | 102
COc1cccc(C(=O)C2CN(C)CC2c2ccc(Cl)cc2)c1 (stereo not given) | x | 2 | i | 1.1 | x | x | 100
CCOC(=O)c1cc(C(O)(C(=O)OC)C(F)(F)F)c(/N=C/N(C)C)o1 (stereo not given) | -2.9 | -4 | i | 0.91 | 5 | 140 | 100
COc1ccc(C(=O)C2CCCN(Cc3cnc(C)s3)C2)c(OC)c1 (stereo not given) | x | 1 | i | 1.3 | x | x | 101
CC(C)Oc1ccc(CC2(CCc3ccncc3)C(=O)NC(=O)NC2=O)cc1 | x | x | i | 1.2 | x | x | 87
NCC(CC(=O)O)C1CCCCC1 (stereo not given) | -3.6 | -3 | i | 1.1 | -21 | 124 | 113
COc1ccc(-n2c(O)c(C(C)=Nc3ccc4c(c3)CCC4)c(=O)[nH]c2=O)cc1 | x | x | i | 1 | x | x | 99
CN(C)CC1CSCCC1(O)c1ccccc1Cl (stereo not given) | -0.4 | 5 | i | 0.95 | 45 | 78 | 94
Cn1c(O)c(/C=N/N2CCOCC2)c(=O)n(-c2ccccc2)c1=S | x | x | i | 0.86 | x | x | 103
CN1CCC(N(C)Cc2cccnc2)CC1 | -1.8 | 4 | x | x | -11 | 130 | 109
Cc1cc(C)n2nc(C)[n+](C)c2n1 | -3.4 | -7 | i | 0.92 | 6 | 110 | 105
C=CCn1c(O)c(C(C)=Nc2ccc(C(=O)OCC)cc2)c(=O)[nH]c1=O | -0.2 | 4 | i | 0.99 | x | x | 110
Cc1ccc(N2C(=O)NC(=O)/C(=C/C=C/c3ccco3)C2=O)cc1 | -1.1 | 1 | u | x | x | x | 93
CCN(CC)CCCN=Cc1c(O)n(CCc2ccc(F)cc2)c(=O)[nH]c1=O | -2.9 | -7 | i | 0.95 | x | x | 106
COc1ccc(CN2CCN(c3ccccc3F)CC2)cc1O | -1.2 | 0 | i | 0.81 | -70 | 94 | 103
CN1CCN(/N=C/c2c(O)n(CCC3=CCCCC3)c(=S)[nH]c2=O)CC1 | x | x | i | 1 | x | x | 102
Cn1cc(C(=O)Cc2ccccc2)c2ccccc21 | -1.9 | -1 | i | 0.91 | 17 | 109 | 96
O=C(Nc1ccc(F)cc1)c1c(O)c2c(n(Cc3ccccc3)c1=O)CCCC2 | -2.4 | -6 | i | 0.95 | -36 | 111 | 98
CC(C)[C@H]1C(=O)N2CCC[C@H]2[C@]2(O)O[C@](NC(=O)[C@@H]3C=C4c5cccc6[nH]cc(c56)C[C@H]4N(C)C3)(C(C)C)C(=O)N12 | -0.3 | 6 | u | x | -236 | 62 | 85
COc1cc2c(cc1O)CC1c3c(cc(O)c(OC)c3-2)CCN1C (stereo not given) | x | 9 | i | 0.91 | x | x | 87&111
O=c1[nH]c(=O)n(-c2ccccc2F)c(O)c1C=NCCC1=CCCCC1 | x | -1 | i | 1.1 | -69 | 63 | 117
SMILES | GALR2 ag | PKD1 kinase inh | HSV augment | HSV augment primary fold | INS promoter inh | INS promoter inh cell count | RGS16-Gao HTS
Clc1ccc(N2CCNCC2)nn1 | x | 1 | i | 0.97 | 8 | 103 | 107
Cc1ccc(N2C(=O)NC(=O)C3(Cc4ccccc4N4CCN(c5ccccc5)CC43)C2=O)cc1 (stereo not given) | -2.5 | 9 | i | 1.2 | -6 | 103 | 103
Cc1cc(C(=O)O)c(C)n1C1CC1 | x | x | i | 0.9 | x | x | 100
COc1ccc(N=Cc2c(O)n(Cc3ccccc3)c(=S)[nH]c2=O)c(OC)c1 | x | x | i | 1.1 | x | x | 100
CCOC(=O)c1c(C)n(CCOC)c2ccc(O)cc12 | -1.6 | -2 | i | 0.9 | -11 | 59 | 98
Cc1cccc(OP(N)(=O)Oc2cccc(C)c2)c1 | x | x | i | 0.86 | x | x | 101
Cc1ccc(CS(=O)(=O)CCC(=O)N2CCC3(CC2)OCCO3)cc1 | -1.5 | -2 | x | x | -9 | 125 | 97
O=C1C2CCCN2C(c2ccc(Cl)c(Cl)c2)N1c1ccccn1 (stereo not given) | -2.3 | -2 | i | 0.77 | 57 | 149 | 100
C[C@H]1CCCC(=O)CCCCCc2cc(O)cc(O)c2C(=O)O1 | 0.5 | -3 | i | 0.71 | -118 | 83 | 103
Cc1nc2c(=O)n(C)c(=O)nc-2n(C)n1 | 4.6 | 6 | x | x | -155 | 127 | 101
Cn1c(O)c(C=NCCN2CCOCC2)c(=O)n(C)c1=S | x | x | i | 0.96 | x | x | 104

A portion of the library; rates above refer to the full screens.
